Source: PubChem (several laboratories)
CSC inhib – cancer stem cell inhibition; inhibition, % at 7.5 µM; AID 2717; cancer stem cell-like cells viability, luminescence; hit rate 1.1% among 300,000;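 active = mean at 75% or more and at least half the replicates too; inconclusive = mean and replicates disagree; tested in HMLE shEcad cells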;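 also: 0% = median of negative and 100% = median of positive control wells; the first replicate is given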
Rce1 inhib – blocks yeast Ras-converting enzyme | hit rate 0.27% among 290,000 | calls only | Q03530 | yeast membranes, quenched prenylated peptide cleavage fluorescence;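 active = fall in fluorescence gain of 50% or more versus controls, with final raw signal at or below 3038400; inconclusive = same 50% fall but final raw signal above 3038400; inactive = fall in fluorescence gain under 50%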;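 also: plate controls were neutral control wells for no effect and wells lacking membranes for full effect; tested at 10 µM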
PABP FP inh – PABP-poly(A) binding inhibition. PABP-poly(A) RNA binding, fluorescence polarization. inhibition, % at 35 µM. hit rate 1% among 290,000;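 active = 50% or more with normal probe brightness, or confirmed in later tests; inconclusive = above 50% with abnormal brightness, or retests that disagree; inactive = below 50% or failed in later tests; about a fifth of its hits are not listed in these tables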;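 also: calls also rest on retests at 20 µM and on dose response follow-up; controls were probe without protein and protein plus probe with vehicle; some compounds called inactive have numbers as strong as hits; many hits fall short of the cut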
Target sequence (P11940 whole entry, looked up): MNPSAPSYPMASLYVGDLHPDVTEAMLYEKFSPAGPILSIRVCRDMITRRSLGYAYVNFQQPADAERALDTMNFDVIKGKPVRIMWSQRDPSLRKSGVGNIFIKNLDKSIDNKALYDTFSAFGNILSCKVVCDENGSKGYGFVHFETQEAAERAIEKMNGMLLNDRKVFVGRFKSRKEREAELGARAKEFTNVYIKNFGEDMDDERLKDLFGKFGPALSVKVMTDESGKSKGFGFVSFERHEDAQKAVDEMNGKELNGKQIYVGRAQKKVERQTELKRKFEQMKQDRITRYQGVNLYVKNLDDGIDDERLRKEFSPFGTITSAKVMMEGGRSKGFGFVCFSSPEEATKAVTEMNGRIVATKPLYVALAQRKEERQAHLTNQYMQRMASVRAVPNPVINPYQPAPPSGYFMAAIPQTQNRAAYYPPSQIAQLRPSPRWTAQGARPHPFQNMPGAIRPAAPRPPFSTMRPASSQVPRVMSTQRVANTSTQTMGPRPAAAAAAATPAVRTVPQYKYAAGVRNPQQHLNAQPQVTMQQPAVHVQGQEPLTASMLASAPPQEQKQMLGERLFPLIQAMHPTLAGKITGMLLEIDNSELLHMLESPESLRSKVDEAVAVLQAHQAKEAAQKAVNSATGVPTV
MT1-MMP act inh – inhibitors of human MT1-MMP activation; P50281; hit rate 0.061% among 360,000; HT1080 RFP-PRO-GFP cells, GFP/RFP ratio fluorescence, overnight; percent of plate control window, DMSO zero; AID 651647; GFP/RFP ratio change, % at 20 µM;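 active = GFP/RFP ratio change of at least 30% with cell ATP level not reduced by more than half and red fluorescence within 50% of control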; also: strong numbers were not always called active
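Material – HT1080 RFP-PRO-GFP cells · Control set – DMSO wells and RFP-L50D-GFP cells · Incubation – overnight cell settling, then overnight compound exposure, 37 °C, 5% CO2 · Compound dosing – single-point 20 µM compound, 1% DMSO · Read-out – GFP/RFP fluorescence ratio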
eIF4H inh – inhibitors of RNA binding by human eIF4H; eIF4H fluorescence polarization binding assay; inhibition, % at 35 µM; hit rate 0.94% among 290,000;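 active = 50% or more with normal probe brightness, or confirmed in later tests; inconclusive = above 50% with abnormal brightness, or retests that disagree; inactive = below 50% or failed in later tests; about a fifth of its hits are not listed in these tables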;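 also: calls also rest on retests at 20 µM and on dose response follow-up; 0% = protein and probe with vehicle and 100% = probe without protein; strong numbers were not always called active; many hits fall short of the cut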
UUG fidelity – modulators of start codon recognition fidelity in yeast; S. cerevisiae UUG-firefly luciferase reporter, luminescence/redox ratio; AID 602363; activity score, % at 18.7 µM; hit rate 0.13% among 350,000;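 active = replicate mean at a twofold rise or more, about +100% in these data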;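 also: firefly luciferase made from a UUG start codon reports start codon fidelity; reporter light over untreated wells divided by growth signal over untreated wells; some hits fall short of that in this replicate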
HIV Env fusion – HIV envelope-mediated fusion inhibition; HeLa-JRFL Env/CEM21 cell fusion, luciferase; inhibition, % at 12.3 µM; hit rate 1.1% among 360,000; AID 651610;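 active = mean replicate inhibition score of at least 50 and every replicate individually at or above 50; inconclusive = only one of the two criteria met; inactive = mean below 50 and not all replicates reaching 50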;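 also: 0% = plate neutral controls and 100% = maraviroc near 300 nM; one replicate is shown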
eIF4H inh retest – further read-out of eIF4H inh, marked with its call; inhibition, %; compound at 20 µM; confirmation average;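 mean of two retest wells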
PABP FP inh retest – second read-out of PABP FP inh, no call of its own (marks repeat the call); inhibition, %; compound at 20 µM; confirmation repeats;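 mean of two retest wells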
MT1-MMP act inh RFP – further read-out of MT1-MMP act inh, marked with its call; RFP signal change, %; measured here: RFP expression control read;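 0 = vehicle wells; hits needed this value within 50% of zero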
An asterisk follows results filed as active; i = inactive; ? = inconclusive; . = no result given.

SMILES	CSC inhib	Rce1 inhib	PABP FP inh	MT1-MMP act inh	MT1-MMP act inh RFP	eIF4H inh	UUG fidelity	HIV Env fusion	others
O=C(Nc1cccc(NC(=O)c2ccc(-c3cccc(Br)c3)o2)c1)c1ccco1	37.6	i	0.6	-3.7	-7.2	-10.3	-3.6	.
Cn1c(SCC(=O)NCc2ccc3c(c2)OCO3)nnc1C1COc2ccccc2O1 (stereo unspecified)	-1.3	i	2.6	-4.3	1.9	5.6	-32.2	.
Cc1ccc(-c2cc(-c3ccc4c(c3)OCO4)c(C#N)c(N)n2)o1	2.3	i	14.0	-18.0	5.6	12.5	32.3	-7.9
CCOc1cccc(C(=O)Nc2cccc(C(=O)NC(C)(C)C)c2)c1	-5.0	i	31.5	1.1	0.9	-2.1	.	-13.2
O=C(O)c1ccc(/C=N\Nc2ccccn2)cc1	9.9	i	.	-1.4	-1.7	.	.	-16.0
CCCCC(=O)Nc1ccc(C(=O)NCCCn2ccnc2)cc1	-15.3	i	-7.4	0.1	2.7	8.9	-28.5	-10.5
CCCCC(=O)Nc1ccc(N2CCCC2)cc1	-1.1	i	.	1.1	5.6	.	9.3	.
COc1ccc(CNC(=O)COc2ccc(S(=O)(=O)NC(C)C)cc2)cc1	0.3	i	-3.2	-4.1	-1.8	-3.0	15.4	-6.6
Fc1ccc2nc(N3CCCCC3)sc2c1	-19.1	i	8.4	0.1	2.4	-5.8	-19.7	-263.1
O=C(Cc1c(F)cccc1Cl)Nc1nc2ccccc2s1	4.6	i	0.7	-6.8	-3.7	-9.3	.	-13.6
CC(C)NC(=O)NC(=O)COc1ncnc2sccc12	-10.1	i	20.8	-0.3	3.3	13.4	-13.8	-59.2
Cc1nn(CC(=O)OCCOc2ccc(Br)cc2)c(C)c1[N+](=O)[O-]	-5.2	i	-6.0	-3.9	0.5	3.6	.	6.3
COCCC1CCCCN1C(=O)c1ccc2nc(Cc3ccccc3F)oc2c1 (stereo unspecified)	19.3	i	2.1	0.3	-2.6	-8.7	-26.0	.
Cc1ccc(S(=O)(=O)Nc2ccc(NC(=O)CN3CCCCC3)cc2)cc1	1.2	i	8.4	-3.9	0.7	-4.3	.	.
COc1ccc(S(=O)(=O)N2CCN(Cc3ccccc3[N+](=O)[O-])CC2)cc1	-3.1	i	.	0.3	-4.9	.	.	-17.4
Cc1ccc(-c2nc3cc(C)c(Br)c(C)n3c2CC(C)(C)C)cc1	.	.	.	-5.4	-2.8	.	-34.6	12.3
O=C(NCC1CCCO1)/C(=C\c1ccco1)NC(=O)c1ccccc1 (stereo unspecified)	-6.0	i	2.6	-0.9	4.8	7.9	-11.9	.
Cc1ccc(S(=O)(=O)NCCC(=O)Nc2nccs2)cc1	-0.2	i	1.6	-2.5	-1.4	5.4	.	-6.0
CC(=O)Oc1cc2c(cc1Cl)C1(CC(c3ccccc3Cl)O2)CC(C)(C)NC(=S)N1 (stereo unspecified)	47.4	i	-5.0	-6.0	-8.7	-9.5	-39.6	-10.8
N#C/C(=C(/O)COC(=O)Cc1c[nH]c2ccccc12)c1nc2ccccc2[nH]1	-7.9	i	14.1	-15.1	-4.8	27.1	-18.0	6.1
CCOc1cc(C(=S)N2CCN(C)CC2)ccc1OCC(=O)N1CCCC1	-10.1	i	2.5	-1.3	0.9	-9.1	-19.1	13.5
Cc1cccc(NC(=O)CN2CCN(C(=O)CNC(=O)Cc3cccc4ccccc34)CC2)c1C	2.2	.	.	-10.0	-20.8	.	-11.8	10.2
CC1CCCC(C)N1c1nnc(N)s1 (stereo unspecified)	-11.4	i	5.0	-0.1	4.8	13.7	-24.9	7.8
Cc1cc(C(F)F)n2nc(C(=O)Nc3sc4c(c3C#N)CCC4)nc2n1	11.6	i	6.4	0.7	1.3	12.5	-6.5	-16.3
CC1CCCN(C(=O)c2ccc3c(c2)OCO3)C1 (stereo unspecified)	15.8	i	-4.0	-0.2	2.7	-5.2	-10.3	8.0

Retrieved one by one from the entries so far, three records:
SMILES	CSC inhib	Rce1 inhib	PABP FP inh	MT1-MMP act inh	MT1-MMP act inh RFP	eIF4H inh	UUG fidelity	HIV Env fusion	others
Cc1cccc(NC(=O)CN2CCN(C(=O)CNC(=O)Cc3cccc4ccccc34)CC2)c1C	2.2	.	.	-10.0	-20.8	.	-11.8	10.2
O=C(Cc1c(F)cccc1Cl)Nc1nc2ccccc2s1	4.6	i	0.7	-6.8	-3.7	-9.3	.	-13.6
COCCC1CCCCN1C(=O)c1ccc2nc(Cc3ccccc3F)oc2c1 (stereo unspecified)	19.3	i	2.1	0.3	-2.6	-8.7	-26.0	.

Remaining list, next part
SMILES	CSC inhib	Rce1 inhib	PABP FP inh	MT1-MMP act inh	MT1-MMP act inh RFP	eIF4H inh	UUG fidelity	HIV Env fusion	others
CC1Cc2ccccc2N1C(=O)CSc1nnc(-c2ccc(S(=O)(=O)N3CCOCC3)cc2)n1C (stereo unspecified)	3.8	i	-7.2	-1.5	-9.1	3.5	8.2	-27.8
CCCCn1c(-c2cc(Cl)ccc2OC)n[nH]c1=S	0.2	i	1.6	5.6	-1.9	-6.6	-11.8	-184.4
COC(=O)c1cc(C)sc1NC(=O)c1cccnc1	7.8	i	-0.9	-2.6	-1.2	-6.6	-1.8	-68.3
CCSc1ccc(/C(N)=N/OC(=O)c2cccs2)cn1	-2.5	i	-1.5	-0.6	6.2	1.3	-10.3	-48.1
O=C(N/N=C/c1cccc2ccccc12)c1ccccc1Cl	-1.7	i	-8.7	-1.4	-4.3	-4.1	-22.7	-10.4
CC1CCCN(CCCOc2ccc([N+](=O)[O-])cc2)C1 (stereo unspecified)	39.0	i	-0.6	4.9	3.7	5.6	.	-19.6
COC(=O)c1nc(N)sc1C	-11.4	i	-10.2	-3.7	-6.8	-2.0	.	9.7
Cc1ccn2c(=O)nc(SCC(=O)NC3CCCCC3)nc2c1	-6.3	i	.	2.4	3.8	.	-18.7	.
Cc1ccc(-c2csc3ncnc(SCC(=O)NCc4ccc5c(c4)OCO5)c23)cc1	.	i	12.7	-7.8	-8.8	23.0	-7.1	27.6
Cc1c(Cl)c([N+](=O)[O-])nn1CCCC(=O)Nc1cc(Cl)ccc1Cl	-11.4	i	-6.9	8.9	-1.8	-5.4	-9.0	26.9
C=CCSc1nc2c(C(=O)OCC)nnn2c2ccccc12	12.1	i	23.0	-6.0	-3.6	0.6	-10.8	28.0
Cc1cccc(Nc2nc(-c3ccc4c(c3)OCCO4)cs2)c1	5.4	i	4.4	-4.2	-3.7	-5.5	-18.4	.
COc1ccccc1N(CC(=O)Nc1ccccc1C(=O)N1CCCC1)S(C)(=O)=O	.	i	0.7	-1.5	1.5	1.6	2.7	-20.0
COc1ccc(CC(=O)Nc2ccc(N3CCOCC3)cc2)cc1OC	-1.9	i	1.4	3.1	-10.9	1.3	.	4.6
CCn1cc(CN2CCCC(CNS(=O)(=O)Cc3ccccc3)C2)cn1 (stereo unspecified)	-2.3	i	-9.1	0.3	1.1	-1.4	.	8.7
CC(C(=O)Nc1nc2ccccc2[nH]1)N1C(=O)C2CC=CCC2C1=O (stereo unspecified)	-8.8	i	-5.8	0.1	3.2	2.9	-13.9	.
CCCCN(C(=O)c1ccc(S(=O)(=O)N2CCOCC2)cc1)C1CCS(=O)(=O)C1 (stereo unspecified)	-11.7	i	.	-3.8	3.7	.	4.5	0.0
CCOC(=O)c1[nH]c(C)c(C(=O)N2CCN(c3cccc(Cl)c3)CC2)c1C	4.0	i	5.5	-15.6	-17.4	-4.1	-3.0	.
O=C(NC(Cc1c[nH]c2ccccc12)C(=O)O)c1cccc(S(=O)(=O)N2CCCCC2)c1 (stereo unspecified)	.	.	.	4.0	4.3	.	-8.4	18.3
Cc1cc(CNC(=O)c2ccc3c(c2)OCO3)c2ccccc2n1	46.3	i	-1.8	2.3	-12.3	1.2	.	-22.0
CCc1noc(C)c1C(=O)Nc1ccccc1N1CCOCC1	2.5	i	.	-2.9	2.1	.	.	4.4
COc1cccc(OCCn2cc(C(=O)c3ccco3)c3ccccc32)c1	17.2	i	13.2	0.3	-6.1	5.0	-8.8	65.9*
CC(Sc1nc(N(C)C)nc(N2CCOCC2)n1)C(=O)Nc1ccccc1 (stereo unspecified)	-14.0	i	-4.5	-3.0	-0.9	5.3	-0.2	.
CCC(C)(C)NC(=O)CN(CC1CCCO1)C(=O)CNS(=O)(=O)c1ccccc1 (stereo unspecified)	-3.2	i	2.5	7.0	7.4	-11.0	-8.8	0.7
CCC(C(=O)NC1CCCCCC1)c1ccccc1 (stereo unspecified)	6.6	.	.	0.8	-6.8	.	-8.2	15.9
(next part)
SMILES	CSC inhib	Rce1 inhib	PABP FP inh	MT1-MMP act inh	MT1-MMP act inh RFP	eIF4H inh	UUG fidelity	HIV Env fusion	others
O=C1C2=C(CCCC2)C(=O)N1c1cccc(OCCBr)c1	-4.3	i	0.9	-1.2	-0.6	?	.	19.5
CCOC(=O)c1ccccc1NC(=O)c1cccc(F)c1	19.2	i	8.6	0.8	-2.1	4.0	-3.7	.
O=S(=O)(c1ccc(F)cc1)c1nc(-c2ccco2)oc1Nc1ccc(F)cc1	15.0	.	-2.0	-4.1	-6.2	2.0	.	-126.3
COc1ccc(C/C(N)=N/OC(=O)CCc2ccccc2)cc1	.	i	-0.1	-2.3	-0.2	-10.9	-11.2	-2.7
Cc1ccc(S(=O)(=O)NCCC(=O)N2CCC(Cc3ccccc3)CC2)cc1	4.1	i	.	2.9	-3.2	.	21.3	3.5
Cc1ccc(C(=O)OCC(=O)NC(C)c2ccccc2)s1 (stereo unspecified)	-2.9	.	.	1.0	-0.8	.	-23.3	-3.5
COc1ccc(C)cc1N(C(=O)CNC(=O)c1ccco1)C(C(=O)NC1CCCC1)c1cccnc1 (stereo unspecified)	10.9	i	2.2	-8.4	-15.6	-4.5	-1.9	-51.9
COc1cc(CNn2cnnc2)ccc1OCC(=O)NC(C)(C)C	-16.5	i	-6.9	-1.3	1.9	-3.4	-6.7	.
COCCN(C(=S)Nc1ccc(C(C)C)cc1)C(C)c1cccs1 (stereo unspecified)	21.6	i	4.2	1.6	2.0	3.6	-17.7	9.1
ClCc1c2ccccc2cc2ccccc12	-10.2	.	.	-0.9	1.6	.	-12.7	12.3
COc1ccc(NC(=O)Nc2ccc(C(=O)N3CCOCC3)cc2)cc1	-7.9	i	-0.3	-5.1	-0.3	-0.4	-7.6	-11.3
Cc1cc(C(=O)Nc2cccc(O)c2)c(C)o1	4.1	i	7.4	-27.8	3.8	5.7	-15.3	.
O=C(O)C1CCCN(C(=O)NCc2ccccc2)C1 (stereo unspecified)	1.2	i	-0.9	1.9	2.8	-1.3	.	-31.2
COc1cc(NC(=S)NCCC(c2ccccc2)c2ccccc2)c(OC)cc1Cl	37.2	i	20.0	2.0	0.5	-4.9	-1.3	12.9
O=C1CCCc2ccccc2N1Cc1ccc(Cl)cc1Cl	4.9	i	2.1	-3.3	-9.4	6.1	.	.
CCCCCCCC[n+]1cccc(C(=O)N(CC)CC)c1	8.6	i	-15.4	0.4	4.4	-2.2	.	-9.0
Cc1nc(NS(=O)(=O)c2ccc(Cl)s2)c2c3c(sc2n1)CCCC3	34.4	i	-8.6	0.2	-4.2	0.0	.	5.2
COc1ccc(C(CNC(=O)c2cc3ccccc3o2)N2CCCCC2)cc1 (stereo unspecified)	4.2	i	51.6	3.5	5.8	-1.6	-8.3	8.1	eIF4H inh retest=4.2;PABP FP inh retest=2.9
CCn1c(SCc2nc(N)nc(N3CCCCC3)n2)nc2c1c(=O)n(C)c(=O)n2C	-9.4	i	-6.2	12.0	0.7	-2.6	-21.1	.
